KCNQ2 inh – KCNQ2 channel blockers in CHO-K1 cells – cell-based, FluxOR thallium flux, B-score, primary screen (AID 2156); actives 1.1% (n = 310,000); B-score at 10 µM; 20 min; active compounds read low; only compounds with negative scores are shown here; some inactives read as strong as hits; O88943;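 active = fluorescence ratio B-score at most minus 3 library SDs, with starting brightness B-score within 2 library SDs, cut at about -5.5 in these data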
Target sequence (O88943 whole entry, looked up): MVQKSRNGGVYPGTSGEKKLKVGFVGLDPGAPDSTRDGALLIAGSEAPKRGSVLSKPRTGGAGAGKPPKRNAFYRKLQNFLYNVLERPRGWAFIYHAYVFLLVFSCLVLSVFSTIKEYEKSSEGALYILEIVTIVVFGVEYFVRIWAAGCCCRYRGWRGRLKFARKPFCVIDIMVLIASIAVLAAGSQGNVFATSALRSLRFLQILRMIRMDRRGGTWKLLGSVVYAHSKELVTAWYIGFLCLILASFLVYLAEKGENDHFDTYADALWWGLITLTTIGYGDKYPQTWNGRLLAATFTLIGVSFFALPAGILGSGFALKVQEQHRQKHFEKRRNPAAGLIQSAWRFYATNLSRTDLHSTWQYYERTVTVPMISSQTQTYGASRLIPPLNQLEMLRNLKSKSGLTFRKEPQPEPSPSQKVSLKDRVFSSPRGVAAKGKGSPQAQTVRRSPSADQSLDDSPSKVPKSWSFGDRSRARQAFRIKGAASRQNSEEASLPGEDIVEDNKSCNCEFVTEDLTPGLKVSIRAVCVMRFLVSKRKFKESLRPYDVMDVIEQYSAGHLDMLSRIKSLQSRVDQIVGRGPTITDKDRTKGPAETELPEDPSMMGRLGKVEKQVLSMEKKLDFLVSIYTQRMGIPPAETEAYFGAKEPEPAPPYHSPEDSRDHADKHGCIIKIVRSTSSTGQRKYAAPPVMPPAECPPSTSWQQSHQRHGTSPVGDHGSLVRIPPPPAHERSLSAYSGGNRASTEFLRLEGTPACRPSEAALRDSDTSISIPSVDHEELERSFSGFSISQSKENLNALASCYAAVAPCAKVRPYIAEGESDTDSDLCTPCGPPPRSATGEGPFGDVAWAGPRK
KCNQ2 inh baseline – further read-out of KCNQ2 inh, marked with its call; B-score; measured here: initial fluorescence intensity artifact check;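 brightness before thallium and not channel activity; 0 = typical well and far values either way flag optical interference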
Active calls of the source: *; i = inactive.

KCNQ2 inh	KCNQ2 inh baseline	molecule
i	-0.15	COc1ccc(O)c(C(=O)c2cnc3onc(C(C)C)c3c2)c1
i	-2.4	O=[N+]([O-])c1cccnc1NCCc1ccccc1
i	-0.78	CCN1C(=O)CC(NNC(=O)c2ccccc2)C1=O (stereo not given)
i	-0.64	Cc1cc(Br)c(NC(=O)CN2CCCC2)c(Br)c1
i	0.92	Cc1ccc2cc(C)c3nnc(SCC(=O)c4cccs4)n3c2c1C
i	-0.4	Cc1cc(NC(=O)c2cccc(C(=O)Nc3cc(C)on3)n2)no1
i	-0.95	CC(C)Sc1nc(O)c(Cc2ccccc2)c(=O)[nH]1
i	-0.09	COc1ccc(C2(CNC(C)=O)CCOCC2)cc1OC
i	46	N#CC1=C(N)OC2=C(CC/C2=C\c2ccccc2)C1c1ccccc1 (stereo not given)
i	1.3	Cc1ccc(COc2ccc(C)nc2[N+](=O)[O-])cc1
i	0.01	O=C(NCC(=O)N(c1cccc(F)c1)C(C(=O)NC1CCCC1)c1cccnc1)c1ccco1 (stereo not given)
i	0.46	COc1ccccc1NC(=S)N1CCN(c2ccccc2F)CC1
i	-0.09	COC(=O)[C@H](Cc1ccccc1)NC(=O)O[C@@H]1C(=O)c2cc(Br)ccc2O[C@H]1c1cccc(OC)c1
i	1.3	Cc1nn(-c2ccccc2)c(N2CCCC2)c1/C=C1\N=C(c2ccc(OC(C)C)cc2)OC1=O
i	1.9	Cc1ccc(S(=O)(=O)CCc2nnc(N)s2)cc1C
i	-0.42	COc1ccc(NS(=O)(=O)c2ccc(C)c(NC(=O)c3ccc(C)c(S(=O)(=O)N4CCOCC4)c3)c2)cc1
i	-0.6	CCOC(=O)C1CCN(c2nc3ccccc3n2CC(=O)c2ccccc2)CC1
i	-1.8	CCC1CCCCN1C(=O)COC(=O)CN(C)S(=O)(=O)c1ccc(NC(C)=O)cc1 (stereo not given)
i	-1	COc1ccc(C(=O)c2sc(Nc3cccc(OC)c3)c(C(=O)Nc3cccc(C)c3C)c2N)cc1
i	-0.29	COc1ccc2[nH]c(=O)c(CN(CCc3ccccc3)Cc3nnnn3CC3CCCO3)cc2c1 (stereo not given)
i	0.51	Cc1cccc(NC(=O)C(C)SCc2ccccc2)c1 (stereo not given)
i	-2.1	CCCCn1c(N)c(N(CC)C(=O)c2ccc([N+](=O)[O-])c(C)c2)c(=O)[nH]c1=O
i	0.42	COC(=O)c1c(SCc2ccc(C#N)cc2)nc(=O)[nH]c1C
i	2.3	O=S(=O)(CCN1C=CC(C(F)(F)F)=NCC1)c1ccc(Cl)cc1Cl
i	-0.81	COc1cc(NC(=O)CN2C(=O)COc3ccc(S(=O)(=O)N4CCOCC4)cc32)cc(OC)c1
i	2.4	Nc1nnc(-c2ccccc2F)s1
i	1.9	Cc1ccc(CNC(=O)CN2CCN(Cc3ccc(C)cc3)C2=O)cc1
i	-0.49	N#C/C(=C\c1ccc2c(c1)OCO2)C(N)=S
i	-0.41	O=C(NCc1ccccc1)c1ccc(N2C(=O)C3CCCCC3C2=O)cc1 (stereo not given)
i	-0.46	COc1cc(OC)c(C(=O)OCC(=O)N(Cc2ccccc2)C(C)(C)C)cc1OC

Profiles as entered above. Values in the order: KCNQ2 inh, KCNQ2 inh baseline
Results for COc1cc(OC)c(C(=O)OCC(=O)N(Cc2ccccc2)C(C)(C)C)cc1OC → i, -0.46
Results for COc1ccc2[nH]c(=O)c(CN(CCc3ccccc3)Cc3nnnn3CC3CCCO3)cc2c1 (stereo not given) → i, -0.29
Results for Cc1cc(Br)c(NC(=O)CN2CCCC2)c(Br)c1 → i, -0.64
Results for CCN1C(=O)CC(NNC(=O)c2ccccc2)C1=O (stereo not given) → i, -0.78
Results for COC(=O)c1c(SCc2ccc(C#N)cc2)nc(=O)[nH]c1C → i, 0.42

(listing goes on)
KCNQ2 inh	KCNQ2 inh baseline	molecule
i	-1.1	CN1C(=O)[C@H]2[C@@H](/C=C/c3ccccc3)N3C(=O)CN(Cc4ccc(-c5ccccc5)cc4)C(=O)[C@@]3(Cc3ccccc3)[C@H]2C1=O
i	0.79	COc1cccc2c(=O)c(SC(F)(F)C(F)C(F)(F)F)c(C)[nH]c12 (stereo not given)
i	-0.6	CCN(c1ccccc1)S(=O)(=O)c1ccc2c(c1)N(C(C)=O)CCS2
i	-1.2	CCOc1ccc(CCNC(=O)CN2C(=O)NC3(CCCCC3C)C2=O)cc1OCC (stereo not given)
i	-0.06	CCCCNC(=O)c1cn(CC(C)C)c(=O)c2c1c1ccccc1n2C
i	0.4	O=C1c2ccccc2C(=O)N1CCCc1cn(C[C@H]2CC[C@@H]([C@@H]3CC[C@H](Cn4cc(CCCN5C(=O)c6ccccc6C5=O)nn4)O3)O2)nn1
i	1.4	COc1nc(-c2ccccc2)ccc1-c1noc(-c2ccco2)n1
i	0.84	Cc1ccc2occ(/C=N/NC(=O)c3ccccc3Br)c(=O)c2c1
i	-0.56	COC(=O)[C@@H]1C[C@H]2CC[C@H](O)C[C@H]2N1Cc1ccccc1OC(=O)c1cccs1
i	-0.04	Cc1ccc(NC(=O)CSCc2ccc(F)cc2)cc1
i	21	CC(=O)c1ccc2c(c1)c(C#N)c1ccccc1[n+]2[O-]
i	-0.35	CCOC(=O)c1c(NC(=O)CN2CCCCC2)sc(CN(C)C)c1-c1ccccc1
i	0.51	Cc1cccc(C)c1NC(=O)C(c1ccccc1)N1CCC1=O (stereo not given)
i	0.05	COc1ccc(COC(=O)NC2CCN(S(=O)(=O)c3ccc(OC)cc3)CC2)cc1
i	-0.96	CC(=O)Nc1ccc(/C=C2\CCc3ccccc3C2=O)cc1
i	12	Cc1cc(OCC(=O)Nc2ccc(S(=O)(=O)N3CCN(C)CC3)cc2)ccc1Cl
i	2.3	O=C(CNC(=O)c1ccc(Br)o1)OCC(=O)c1cccc([N+](=O)[O-])c1
i	-1.7	CN1CCN(CC(O)Cn2c3ccccc3c3ccccc32)CC1 (stereo not given)
i	3.8	CC(=O)Nc1nnc(SCC(=O)NC(C)(C)C)s1
i	-1.2	O=C(NC12CC3CC(CC(C3)C1)C2)c1ccccc1O
i	3.6	COc1ccc(N2CC(O)(c3ccc(C)cc3)[N+]3=C2CCCC3)cc1 (stereo not given)
i	2.3	O=C(O)c1cc2nc(-c3cccs3)cc(C(F)(F)F)n2n1
i	-0.75	Nc1nnc(SCC(=O)Nc2cc(S(=O)(=O)N3CCOCC3)ccc2Cl)s1
i	1.3	OCCOCCn1c(C(CO)Nc2nc(-c3ccc(Cl)cc3)cs2)nc2ccccc21 (stereo not given)
i	1.3	O=S(=O)(c1ccc2ccccc2c1)N(CC(O)CN1CCOCC1)c1ccccc1 (stereo not given)
i	1.6	COc1ccc(NC(C)C(=O)N/N=C/c2ccccc2OCc2ccc(Br)cc2)cc1 (stereo not given)
i	-2.1	O=C(CN1C(=O)c2cccnc2C1=O)c1ccccc1
i	-0.12	Cc1ccc(-c2[nH]nc3c2C(c2ccc(OC(=O)N4CCOCC4)cc2)C(C#N)=C(N)O3)cc1 (stereo not given)
i	0.04	CCC(C)NC(=O)c1c(-c2cc(Cl)c(OC)c(Cl)c2)noc1C (stereo not given)
i	-1.2	O=[N+]([O-])c1ccc(F)cc1Oc1nc(-c2cccnc2)nc2ccccc12
i	-0.38	O=C(Nc1ccn(Cc2ccccc2)n1)c1ccc(F)cc1
i	-0.1	COc1ccccc1NC(=O)CSc1nnc(COc2ccccc2C)o1
i	-0.56	COc1ccccc1NC(=O)Cn1nnc2sc3c(c2c1=O)CC(C)(C)OC3
i	2.2	Cc1cc(C(=O)CN2C(=O)C(=O)N(C)C2=O)c(C)n1-c1cccc(S(=O)(=O)N2CCOCC2)c1
i	1.2	Cc1ccc2nc(SCC(=O)Nc3cccc(S(N)(=O)=O)c3)[nH]c2c1
i	0.63	O=C(NCc1ccccc1)C(c1ccccc1)N(C(=O)c1csnn1)c1ccc(F)cc1 (stereo not given)
i	-0.33	CN(CC(O)COC(c1ccccc1)c1ccccc1)C1CCCCC1 (stereo not given)
i	0.97	CN(C(=O)COc1cc(=O)n(C)c2ccccc12)c1ccc(Br)cc1
i	1.5	Cc1cc(=O)oc2cc(OCC(O)Cn3ccnc3)ccc12 (stereo not given)
i	-1.2	COc1ccc(/C=C/C(=O)Nc2ccc(C34CC5CC(CC(O)(C5)C3)C4)cc2)cc1OC
i	-0.22	CCN1CCN(CCC(=O)Nc2cc(OC)cc(OC)c2)CC1
i	2.2	CCOc1ccc(C(C)=O)cc1Cn1nc(C(=O)O)c2ccccc2c1=O
i	-0.31	O=C(O)COc1ccc(C(NC(=O)c2c(F)cccc2F)NC(=O)c2c(F)cccc2F)cc1
i	0.77	CCCCNC(=S)NNC(=O)c1cc(C)on1
i	-3.2	CCOc1ccc(C(=O)NCC(=O)OCC(=O)N2CCCC2)cc1
i	0.9	CC(=O)N1CCc2cc(Br)cc(S(=O)(=O)N3CCCCC3)c21
i	-0.07	CSc1n[nH]c(-c2ccc(C(F)(F)F)cc2)n1
i	-0.86	CCOC(=O)N1CCN(Cc2nc(-c3cccc(C)c3)no2)CC1
i	-0.31	OCCN(CCO)CC(O)COCCC12CC3CC(CC(C3)C1)C2 (stereo not given)
i	0.99	NNc1nc2c(-c3ccc(Cl)cc3)nnn2c2ccccc12
i	0.9	O=C(COC(=O)c1cccc(Br)c1)NCCc1ccc(F)cc1
i	0.16	COc1ccc(NC(=O)CSc2nc3ccccc3c(=O)n2CCCN2CCCCC2)c(OC)c1
i	0.39	O=C(/C=C/c1ccc(S(=O)(=O)N2CCOCC2)cc1)N1CCN(c2ccccc2)CC1
i	0.23	O=C(O)[C@H](Cc1ccccc1)NC(=O)C(c1ccccc1)(c1ccccc1)c1ccccc1
i	-1.1	Cc1ccc(/C=C2/SC(=S)N(CC(=O)Nc3ncc(Cc4ccc(C)cc4)s3)C2=O)cc1
i	-0.19	CCCC(=O)Nc1ccc2c(c1)C(=O)N(CCC(=O)O)C2=O
i	-0.37	CN(C(=O)OC(C)(C)C)c1ccc(-c2nc3ccccc3s2)cc1
i	2.9	Cc1ccccc1CS(=O)(=O)Cc1ccc(C(=O)N2CCOCC2)o1
i	0.67	N=C1/C(=C/c2ccc(OCc3ccccc3)cc2)C(=O)N=C2SC(CC(=O)N3CCOCC3)=NN12
i	0.76	O=C1NC(=Nc2ccc(Cl)cc2)SC1Cc1cccc(Cl)c1Cl (stereo not given)

As entered above:
Value of O=C(Nc1ccn(Cc2ccccc2)n1)c1ccc(F)cc1 in KCNQ2 inh baseline: -0.38
Value of CCOc1ccc(C(=O)NCC(=O)OCC(=O)N2CCCC2)cc1 in KCNQ2 inh baseline: -3.2

Continued.
KCNQ2 inh	KCNQ2 inh baseline	molecule
i	2.3	CC(=O)C1=C(c2ccccc2)N(C(C)=O)n2c(C)nnc2S1
i	-0.77	CC1CCCCC1NC(=O)c1cn(C)c2ccc(S(=O)(=O)N3CCCC3)cc2c1=O (stereo not given)
i	0.93	OC(CNC1Cc2ccccc2C1)COc1ccc(Cl)cc1 (stereo not given)
i	-0.72	COc1ccc(S(=O)(=O)NCCN2CCOCC2)c2ccccc12
i	-1.7	C/C(=N\Nc1cc(C)nc(-c2ccccc2)n1)c1cccc([N+](=O)[O-])c1
i	-0.01	CN(C)Cc1c(C(=O)N/N=C/c2ccc(OCc3ccc(F)cc3)cc2)nnn1-c1nonc1N
i	0.03	COc1ccc(S(=O)(=O)N2CCCCCC2)cc1
i	-2	COc1ccc(-c2cc(C(=O)c3c(N)n(C)c(=O)n(C)c3=O)c3ccccc3n2)cc1
i	-0.58	O=C(COC(=O)c1ccccc1OCc1ccccc1Cl)NC1CC1
i	0.34	CCCCC(=O)NC(c1ccc(N(CC)CC)cc1)c1ccc2cccnc2c1O (stereo not given)
i	1.3	COc1ccc(OCc2n[nH]c(=S)n2Cc2ccco2)cc1
i	-0.06	CN(CC(=O)NCC1CCCO1)S(=O)(=O)c1ccc(Br)cc1 (stereo not given)
i	1	CC(OC(=O)CN1C(=O)c2ccccc2C1=O)C(=O)N(C)c1ccccc1 (stereo not given)
i	0.84	CC1CCCCN1C(=O)CSc1nc(C2CC2)nc2c1cnn2-c1ccccc1 (stereo not given)
i	0.71	CC(=O)Nc1ccc(S(=O)(=O)N(C)CC(=O)OCC(=O)Nc2cccnc2Cl)cc1
i	-0.65	N#Cc1cc([N+](=O)[O-])ccc1Oc1ccc(-c2nnco2)cc1
i	0.4	O=C(Nc1ccc(Cl)cc1Cl)c1cc2ccccc2o1
i	-1.3	Cc1ccc2c(c1)C(c1ccccc1)N(C(=O)C(C)C)CC(=O)N2 (stereo not given)
i	0.3	COCCOC(=O)C1=C(N)Oc2c(oc(CO)cc2=O)C1c1c(F)cccc1Cl (stereo not given)
i	0.93	CCn1c(=O)c2c3c(sc2n2c(=S)[nH]nc12)CCC3
i	0.01	Cc1cc2ncn(S(=O)(=O)c3ccc(F)cc3)c2cc1C
i	0.89	COCCCn1c(-c2ccc(OC)cc2)nc2c1c(=O)[nH]c(=O)n2Cc1ccccc1
i	0.51	Nc1ccc2nc(-c3ccccc3)[nH]c2c1
i	1	COc1cccc2c1C(=O)CC2NC(=O)C(F)(F)F (stereo not given)
i	0.19	NC(=O)c1c(-c2cccs2)csc1N
i	0.46	O=C(COc1ccccc1)Nc1cccc(-c2nn[nH]n2)c1

Laid out differently: results already given
Order of results: KCNQ2 inh | KCNQ2 inh baseline
> COc1ccc(OCc2n[nH]c(=S)n2Cc2ccco2)cc1
→ i | 1.3
> CN(CC(=O)NCC1CCCO1)S(=O)(=O)c1ccc(Br)cc1 (stereo not given)
→ i | -0.06
> CC(OC(=O)CN1C(=O)c2ccccc2C1=O)C(=O)N(C)c1ccccc1 (stereo not given)
→ i | 1
> CC1CCCCN1C(=O)CSc1nc(C2CC2)nc2c1cnn2-c1ccccc1 (stereo not given)
→ i | 0.84
> CC(=O)Nc1ccc(S(=O)(=O)N(C)CC(=O)OCC(=O)Nc2cccnc2Cl)cc1
→ i | 0.71

Bioassay records deposited in PubChem by Johns Hopkins Ion Channel Center.

An excerpt. The share of hits here may be higher or lower than overall.
